PINK1 modulator – PINK1 expression modulation; PINK1 immunofluorescence, high-content cytometry, 24 h; Potency, µM (top dose mostly 76.6 µM), for inactives: at the top dose activation (PINK1 increase), actives largely listed as activators; 410,000 tested, 0.2% active; active = well fitted activation curve with a large enough effect; inconclusive = small, poorly fitted or top-dose-only effect; inactive = flat fitted curve, though single readings scatter; cell line not stated here;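 note: potency is the fitted concentration of half-maximal effect; % of control where 0% means no effect; nearly all actives have a fitted effect of over 65% in size; a mitochondrial uncoupler was the plate control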
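Cells are seeded, rested 12 hours, then given compound at five concentrations or DMSO for 24 hours. After fixation, blocking and antibody staining, PINK1 amount and mitochondrial localization are scored; CCCP serves as control.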
D2 potentiator – human D2 receptor positive allosteric modulation. P14416. DiscoveRx D2 beta-arrestin cells, luminescence, 90 min; 100% = 57 uM dopamine signal. potentiation, % (concentration not given with the values). 360,000 tested, 0.23% active. AID 624464; active = potentiation of 50% or more; inconclusive = 30% to 50%; inactive = 30% or less;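 note: compound concentration not given in the record; tested on top of an EC20 dose of dopamine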
Target sequence (P14416 whole entry, looked up): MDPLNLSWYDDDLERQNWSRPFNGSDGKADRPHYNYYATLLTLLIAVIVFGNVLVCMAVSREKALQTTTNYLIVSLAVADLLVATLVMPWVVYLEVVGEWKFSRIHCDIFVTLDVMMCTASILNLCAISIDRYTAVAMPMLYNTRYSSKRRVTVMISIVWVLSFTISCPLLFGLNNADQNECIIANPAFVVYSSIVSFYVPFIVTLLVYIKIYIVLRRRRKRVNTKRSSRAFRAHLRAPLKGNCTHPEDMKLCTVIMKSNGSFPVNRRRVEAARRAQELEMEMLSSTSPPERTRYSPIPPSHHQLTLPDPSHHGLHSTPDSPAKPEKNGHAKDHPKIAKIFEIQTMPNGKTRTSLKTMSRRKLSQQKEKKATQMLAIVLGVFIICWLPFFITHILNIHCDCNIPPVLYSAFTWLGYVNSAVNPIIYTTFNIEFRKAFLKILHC
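PathHunter D2 cells, attached overnight at 37 deg C, received compound in DMSO plus dopamine at EC20 (50 nM final) for 90 min at 37 deg C. Beta-arrestin recruitment was read as luminescence after 1 h with detection reagent at ambient temperature.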
TRPML1 ag – human mucolipin-1 channel agonism | activation, % (test concentration not listed) | TRPML1-expressing cells, Ca2+ dye fluorescence, FDSS; host cell line not named in the record; reference of the full effect not given here | 410,000 tested, 0.12% active | Q9GZU1; in the data active = activation above about 50%; inconclusive = about 30% to 50%; inactive = below about 30%; note: 0% is about no effect; the text of the record puts the active cut at 80%
Target sequence (Q9GZU1 whole entry, looked up): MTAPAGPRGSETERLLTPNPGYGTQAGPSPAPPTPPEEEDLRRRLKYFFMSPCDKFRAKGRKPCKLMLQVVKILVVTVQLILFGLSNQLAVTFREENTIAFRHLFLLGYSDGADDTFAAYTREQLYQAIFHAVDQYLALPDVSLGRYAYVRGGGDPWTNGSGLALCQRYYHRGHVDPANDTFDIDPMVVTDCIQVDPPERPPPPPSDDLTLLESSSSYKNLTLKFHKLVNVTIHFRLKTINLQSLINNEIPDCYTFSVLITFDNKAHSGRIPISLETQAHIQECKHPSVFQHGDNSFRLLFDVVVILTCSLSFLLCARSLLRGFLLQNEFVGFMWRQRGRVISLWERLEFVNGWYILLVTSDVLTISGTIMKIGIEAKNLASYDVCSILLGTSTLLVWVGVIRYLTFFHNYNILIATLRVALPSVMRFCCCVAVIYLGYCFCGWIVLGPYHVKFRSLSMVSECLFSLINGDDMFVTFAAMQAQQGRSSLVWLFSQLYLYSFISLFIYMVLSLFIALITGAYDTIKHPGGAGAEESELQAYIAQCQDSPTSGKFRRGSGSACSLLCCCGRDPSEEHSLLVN
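In this qHTS format, compounds were pin-transferred onto Ca8-dye-loaded TRPML1-DL cells induced with Tet overnight, and intracellular Ca2+ fluorescence was recorded kinetically for 110 s after a 10 s baseline. A subsequent 4uM final 54-4 (EC80) addition followed by a second 110 s read served as the antagonist phase.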
D2 agonist – activates the human D2 dopamine receptor. P14416. DiscoveRx PathHunter D2 beta-arrestin, luminescence, 90 min; 100% = 57 uM dopamine signal. activation, % (concentration not given with the values). 360,000 tested, 0.084% active. AID 624465; in the data active = activation above about 40%; inconclusive = about 15% to 40%; inactive = below about 15%; note: compound concentration not given in the record; the text of the record calls up to 30% inactive
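Agonist mode: compounds alone added to overnight-plated D2 PathHunter cells for 90 min at 37 C, with 57 uM final dopamine (EC100) defining full response. Beta-arrestin recruitment detected by chemiluminescent reagent, read after 1 h at ambient temperature.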
Six1-Eya2 inh – inhibitors of human Six1/Eya2 interaction | 360,000 tested, 0.56% active | Q15475+O00167 | AID 651725 | activity change, % (test concentration not listed) | AlphaScreen GST-Six1/His-Eya2 binding, biochemical; active compounds read low; control for the full effect not named in the record; in the data active = activity change below about -65%; inconclusive = about -30% to -65%; inactive = above about -30%; note: % is set by controls: 0 for no effect and ±100 for the full control effect
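Homogeneous AlphaScreen proximity assay pairing GST-Six1 with His-tagged Eya2 (added as 5X mix: 250 nM and 500 nM) in 50 mM Tris pH 8.0, 300 mM NaCl, 1 mM TCEP. Glutathione donor and nickel acceptor beads; 1 h, 37 °C, dark.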
CtBP-E1A inh – CtBP/E1A binding inhibition; AlphaScreen GST-E1A/His-CtBP binding, 1536-well; active compounds read low; control for the full effect not named in the record; activity change, % (concentration not given with the values); 340,000 tested, 0.49% active; AID 651724; in the data active means activity change below about -65%; inconclusive means about -30% to -65%; inactive means above about -30%; note: % is set by controls: 0 for no effect and ±100 for the full control effect
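Homogeneous bead-based format: GST-tagged E1A captured on glutathione donor beads, His-tagged CtBP on nickel acceptor beads; compounds precede bead addition by 2 h at 37 °C.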
Starred values were filed as active, the others as inactive; ? = inconclusive; . = no result given; [ ] = dose if it differs, or a comment.

entry	Structure	PINK1 modulator	D2 potentiator	TRPML1 ag	D2 agonist	Six1-Eya2 inh	CtBP-E1A inh
1	COCCn1c(=NC(=O)c2ccc(S(=O)(=O)N3CCc4ccccc4C3)cc2)sc2cc(OC)ccc21	1.1%	1	-1.2	-6.6	3	5
2	Cc1cccc(N2CCN(C3=NC(=O)C(Cc4ccccc4)S3)CC2)c1 (stereo not drawn)	-1.9%	-8	2.8	1.2	-6	1
3	CC(C)(CC(=O)O)CC(=O)Nc1ccc(Oc2ccc(C(C)(C)C)cc2)nc1	1.7%	0	1.2	-2.5	-2	-1
4	C[C@H](NC(=O)c1ccccc1Cl)C(=O)NCCc1ccc(S(N)(=O)=O)cc1	-0.9%	-6	0.1	-5.0	-1	7
5	O=C(CCl)N1c2ccccc2Sc2c1ccc1ccccc21	-6.6%	12	1.0	?	-3	-1
6	Cc1ccc(-n2nnnc2SCn2nnc3ccccc3c2=O)c(C)c1	-0.7%[38.3 µM]	4	0.6	-2.0	-3	10
7	C/C(Cc1ccccc1)=N\NC(=O)CNC(=O)c1cccc(Cl)c1	0.2%	1	1.0	5.6	7	0
8	Cc1ccc(C2=C(c3ccc([N+](=O)[O-])cc3)C(=O)OC2)cc1C	?	-7	0.4	-4.5	?	-22
9	Cc1nc(NC(=O)/C=C/c2ccco2)sc1C	11%	-13	0.2	-3.7	6	-6
10	COc1ccccc1-n1cnc2c(c1=O)c1nc3ccccc3nc1n2-c1ccc(C)cc1	7.5%	-14	0.4	-3.8	-1	.
11	Cc1cc(-c2ccc(NS(=O)(=O)c3ccccc3)c(C)c2)ccc1NS(=O)(=O)c1ccccc1	9.5%	-3	2.6	1.1	-4	-14
12	COc1ccccc1N1CCN(CC(=O)N2N=CCC2c2ccccc2)CC1 (stereo not drawn)	0.7%	-22	0.4	-9.9	0	.
13	CCN1C(=O)c2ccccc2S(=O)(=O)c2ccc(C(=O)NCCCN(CC(C)C)CC(C)C)cc21	4.7%	-6	-0.7	-0.1	-2	3
14	COc1ccc(S(=O)(=O)NC(N)=NCCc2ccccc2)cc1	-0.2%	0	0.8	-1.6	3	9
15	CC(C)c1ccc(OCC(=O)N(Cc2ccco2)C2CCS(=O)(=O)C2)cc1 (stereo not drawn)	-0.8%	1	0.0	-0.5	-6	-1
16	O=C(NC1=NCCS1)c1ccc(Cl)c(S(=O)(=O)N2CCCCC2)c1	3.4%	2	-0.1	-5.1	3	5
17	COc1ccc(OCC(=O)O/N=C(\N)c2ccc(OC)cc2)cc1	-1.4%	-3	1.1	5.1	9	24
18	CCc1nc2ccc(C(=O)N3CCN(S(=O)(=O)CC)CC3)cn2c1N(CC)CCN(C)C	0.7%	-2	0.1	-3.3	-2	5
19	Cc1cc2cc(CCNC(=O)c3ccc(Br)o3)c(=O)[nH]c2cc1C	2.2%	-28	1.1	-3.8	21	5
20	CCCSc1nsc(NC(=O)CCC)n1	5.6%	0	0.1	-0.1	3	-21
21	CC1CC(NC(=O)c2cc3c(=O)n4ccccc4nc3n2C)CC(C)(C)C1 (stereo not drawn)	2.4%	-7	2.0	9.8	14	24
22	COCc1cc(CN(C)C(=O)C2CCC(=O)N(Cc3cccc(OC)c3)C2)[nH]n1 (stereo not drawn)	1.2%	-13	1.1	-1.6	2	2
23	CCCN1CCN(C(=O)Cn2nc(C)n3c(cc4c(OC)cccc43)c2=O)CC1	-0.9%	-1	-0.1	-0.3	-7	1
24	C/C=C/c1ccc(OCC(=O)OCc2csc(CC(=O)Nc3ccccc3C)n2)c(OC)c1	0.9%	-2	2.4	-2.9	2	-14
25	S=C(Nc1ccc(Br)cc1)N1CCn2cccc2C1c1cccnc1 (stereo not drawn)	-0.1%	-17	2.5	-3.6	-7	-12
26	CC(=O)c1cccc(S(=O)(=O)NC2CCCCCC2)c1	0.7%	-13	-0.6	-2.7	12	12
27	CC(NC(=O)CN1CCN(Cc2cccc(F)c2)CC1)c1ccccc1 (stereo not drawn)	1.1%	-19	-0.1	-10	3	12
28	CCOc1ccc(OCCn2c(=S)[nH]c3ccccc32)cc1	3.8%	-19	.	-1.4	7	.
29	COc1ccc(C(=O)NNC2=CC(=O)CC(C)(C)C2)cc1OC	2.3%	2	0.2	-5.6	-11	-2
30	O=C(CCC1CCCCC1)Nc1c2c(nn1-c1ccc(F)cc1)CS(=O)(=O)C2	-2.2%[38.3 µM]	-9	0.1	-1.0	1	8

Ordered by length of the SMILES (lowest first): part of the list above
entry	Structure	PINK1 modulator	D2 potentiator	TRPML1 ag	D2 agonist	Six1-Eya2 inh	CtBP-E1A inh
20	CCCSc1nsc(NC(=O)CCC)n1	5.6%	0	0.1	-0.1	3	-21
26	CC(=O)c1cccc(S(=O)(=O)NC2CCCCCC2)c1	0.7%	-13	-0.6	-2.7	12	12
28	CCOc1ccc(OCCn2c(=S)[nH]c3ccccc32)cc1	3.8%	-19	.	-1.4	7	.

Next part:
entry	Structure	PINK1 modulator	D2 potentiator	TRPML1 ag	D2 agonist	Six1-Eya2 inh	CtBP-E1A inh
31	CCOc1ccc(/C=N/NC(=O)CCC(=O)Nc2ccc(F)cc2)cc1	4.5%	-5	2.0	-3.7	10	-23
32	N#Cc1c(-c2ccccc2)nc(N2CCOCC2)[nH]c1=O	-3.5%	-23	1.2	-1.5	-5	-2
33	CCc1ccccc1NC(=O)CSc1nnc(-c2ccco2)n1N	-2.7%	-10	-1.1	-10	3	0
34	CC(C)[N+]1(C)[C@@H]2CC[C@@H]1CC(OC(=O)C(CO)c1ccccc1)C2 (stereo partly drawn)	-0.9%	-18	-0.6	1.9	-2	2
35	Cc1cc2oc(=O)cc(CN(C)Cc3cccc(F)c3)c2cc1C	-0.3%	-4	3.0	0.7	9	23
36	O=C(c1ccco1)N1CCN(c2ncnc3sc4c(c23)CCC4)CC1	-0.7%	3	-0.5	5.1	-25	?
37	O=C(/C=C/c1ccc(-c2ccccc2)o1)c1ccccc1	17%	20	1.6	1.7	-1	3
38	O=S(=O)(c1cc(F)cc(F)c1)N1CCN(c2ncccn2)CC1	3.0%	-5	-0.3	-2.6	1	-4
39	CCOC(=O)c1c(C)[nH]c(N=Nc2ccccc2C)c1C	.	-19	1.5	-0.1	?	?
40	O=S(=O)(NCc1cccnc1)c1cccs1	-0.6%[38.3 µM]	4	0.5	-0.9	2	-4
41	Nc1ccn([C@@H]2O[C@H](C(=O)N[C@H](COC=O)Cc3ccccc3)[C@@H](O)[C@H]2O)c(=O)n1	2.3%	2	-0.1	1.6	1	3
42	COc1ccc(C(=O)CSc2nnc(Cc3ccccc3)o2)cc1	0.3%[38.3 µM]	9	-0.5	0.8	-8	0
43	COC(=O)c1c(NC(=O)CSc2nnc(Cn3nnc4ccccc43)n2C)sc(C)c1C	-3.7%[38.3 µM]	-11	1.5	-1.8	20	90
44	CCOC(=O)Cc1csc(NC(=O)COc2ccc(OC)cc2)n1	3.7%	-3	-0.2	0.7	-10	-3
45	COc1ccc2c3n(nc2c1)CCN=C3c1cc(Cl)c(N)c(Cl)c1	-1.3%	0	-0.1	2.0	-4	.
46	Cc1oc(-c2ccc(Cl)cc2)nc1CSCC(=O)NCCCN1CCOCC1	0.4%[38.3 µM]	-5	2.8	1.2	1	2
47	O=C(O)c1ccc(NC(CSCc2ccccc2F)C(=O)O)c([N+](=O)[O-])c1 (stereo not drawn)	2.1%	-25	-0.5	-8.3	1	17
48	CCNC(=O)COC(=O)c1ccc(NS(=O)(=O)c2ccc3c(c2)OCCO3)cc1	0.3%	-3	-0.6	0.3	-2	3
49	O=C(Oc1ccc(Cl)c2cccnc12)c1ccco1	4.1%	-23	-0.1	-5.1	-88*	-83*
50	C=CC(=O)N1C/C(=C/c2ccc(Cl)cc2)C(=O)/C(=C\c2ccc(Cl)cc2)C1	1.6%	-25	1.0	-5.0	-13	2
51	OCC#CCSc1nnc(-c2ccncc2)o1	-2.5%	2	0.0	-0.3	0	-2
52	O=C(NCCc1ccccc1)C1CCCN(S(=O)(=O)c2cccc3nonc23)C1 (stereo not drawn)	15%	-24	0.1	-9.3	7	3
53	Cc1nc2sc3c(NCc4ccco4)ncnc3c2c2c1COC(C)(C)C2	3.6%	11	-0.4	-3.2	-7	-4
54	CN(c1ccc(C(=O)NCCSCc2c(F)cccc2Cl)cc1)S(C)(=O)=O	0.1%	-10	-0.7	-3.3	-1	1
55	c1ccc(CSc2cc3ccccc3[nH]2)cc1	8.0%	-4	2.4	6.1	1	20
56	COc1ccc(CN(C)C(=O)c2cc(-c3ccccc3)nc3ccc(C)cc23)c(OC)c1	-0.5%	-2	3.5	0.2	-9	0
57	CC[C@@]1(C(=O)OC)N[C@H](CN(C)C(=O)Nc2ccc(C(F)(F)F)cc2)[C@@H]2C(=O)N(Cc3ccccc3)C(=O)[C@@H]21	2.8%	.	-0.6	0.3	2	-4
58	N#Cc1nc(COc2ccccc2)oc1N1CCCCCC1	0.5%	-4	-0.3	4.9	?	-25
59	O=S(=O)(Cc1ccc(Cl)cc1)N1CCN(Cc2ccc3c(c2)OCO3)CC1	2.0%	-14	0.5	3.0	7	-1
60	COc1cccc(NC(=O)C(C)Oc2ccccc2)c1 (stereo not drawn)	-0.8%	-5	1.6	-2.8	10	-15
61	FC(F)(F)c1ccccc1NC(=S)N1CCc2ccccc2C1	-1.8%	-7	1.1	2.7	4	.
62	Cc1ccsc1/C=C1\CCc2ccccc2C1=O	-0.3%	-7	1.9	-4.7	10	18
63	c1ccc(-c2cnc(CSc3ncnc4sccc34)o2)cc1	-3.8%	11	2.6	-2.2	3	4
64	Nc1n[nH]c(-c2cccc([N+](=O)[O-])c2)n1	0.2%	-9	-0.3	-0.6	-3	-18
65	Cc1nc2cc(NS(=O)(=O)c3cccc(F)c3)ccc2s1	0.6%	-5	-0.3	-1.2	1	1
66	O=C(NN1C(=O)C2C3c4ccccc4C(c4ccccc43)C2C1=O)C1CC1 (stereo not drawn)	3.0%	-4	1.3	-2.8	9	3
67	Cc1ccccc1C(=O)Nc1cccc(C#N)c1	0.8%[38.3 µM]	-11	0.1	-1.8	24	41
68	C=CCN1C(=O)NC2(CCCCC2)C1=O	1.7%	-1	-0.3	-4.3	-1	-7
69	COc1ccc(/C=N/NC(=O)CN(c2ccc(OC)cc2)S(=O)(=O)c2ccccc2)cc1	1.0%	-7	0.8	-5.0	-16	.

Outcome played no part in choosing rows, and some 1.3% of all compounds hit somewhere here.
